High-throughput results deposited in PubChem by Broad Institute.
MLL AF4-AF9 inh = inhibitors of human MLL-AF4/AF9 interaction. AID 651704. AlphaScreen, biotin-AF4 peptide binding to FLAG-AF9. inhibition, % at 10 µM. 350,000 compounds, 0.47% hits;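 active means every replicate reaching a set inhibition limit, whatever the replicate mean, cut at about 25% in these data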;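 further: 0% = plate neutral control median and 100% = total signal loss; the record names both 10 and 1 µM as test concentration; the first replicate is given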
Target sequence (P42568 whole entry, looked up): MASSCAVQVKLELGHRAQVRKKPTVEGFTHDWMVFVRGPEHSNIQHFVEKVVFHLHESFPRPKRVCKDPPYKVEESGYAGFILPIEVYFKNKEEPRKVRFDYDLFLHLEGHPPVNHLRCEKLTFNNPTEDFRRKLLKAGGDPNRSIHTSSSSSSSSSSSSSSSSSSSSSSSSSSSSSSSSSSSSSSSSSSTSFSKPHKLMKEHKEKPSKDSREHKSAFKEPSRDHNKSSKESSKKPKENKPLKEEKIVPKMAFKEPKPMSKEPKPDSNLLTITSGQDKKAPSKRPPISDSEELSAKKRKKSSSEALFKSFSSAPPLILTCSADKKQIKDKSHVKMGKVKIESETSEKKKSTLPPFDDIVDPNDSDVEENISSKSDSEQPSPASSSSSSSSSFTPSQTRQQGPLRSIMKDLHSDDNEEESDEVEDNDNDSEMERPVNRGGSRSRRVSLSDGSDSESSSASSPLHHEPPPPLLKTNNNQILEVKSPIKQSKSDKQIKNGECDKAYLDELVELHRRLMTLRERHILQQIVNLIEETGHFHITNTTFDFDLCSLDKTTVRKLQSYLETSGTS
FGF22 binding = FGF22 (human) thermal shift binding. Q9HCT0. recombinant FGF22 thermal shift, SYPRO orange fluorescence; percent of sucrose octasulfate shift, DMSO zero. calls only at 9.99 µM. 340,000 compounds, 1.5% hits. AID 651658;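 active means melting point raised past a set limit in the mean and every replicate; three in four hits are not shown here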
Target sequence (Q9HCT0 whole entry, looked up): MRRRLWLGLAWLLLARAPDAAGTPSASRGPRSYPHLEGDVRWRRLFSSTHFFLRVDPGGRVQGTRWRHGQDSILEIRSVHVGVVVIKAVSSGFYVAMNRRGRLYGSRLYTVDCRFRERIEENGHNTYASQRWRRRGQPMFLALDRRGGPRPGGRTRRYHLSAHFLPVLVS
Ecoli rRNA inh = selective bacterial rRNA inhibition in E. coli | E. coli WT GFP vs humanized-ribosome RFP mutants, fluorescence, 24 h; active compounds read low; DMSO median 0, no signal -100 | GFP signal change (wild-type ribosome), % (no concentration beside the values) | 350,000 compounds, 1.6% hits | AID 720706;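 active means significant combined selectivity score with lowered wild-type GFP, culture density cut under 30%, mutant RFP and density less affected; inactive means any of these conditions unmet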; further: one replicate is shown; some compounds called inactive have numbers as strong as hits
Ecoli rRNA inh OD600 = further read-out of Ecoli rRNA inh, marked with its call; OD600 change, %; measured here: OD600 growth;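 optical density of the mix in the first replicate; 0 = DMSO median and -100 = no signal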
Ecoli rRNA inh RFP = also measured in Ecoli rRNA inh; calls as there; RFP signal change, %; measured here: RFP humanized mutant strains;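 first replicate; 0 = DMSO median and -100 = no signal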
* marks the source's active call; other numbers are inactive results; i = inactive; + = active, no number. These rows are one share of the data; the hit share may differ from the screen's.

MLL AF4-AF9 inh,FGF22 binding,Ecoli rRNA inh,Ecoli rRNA inh OD600,Ecoli rRNA inh RFP,SMILES
-8.9,i,-58,-76,-16,CC1(C(=O)NCc2ccccc2Br)CCN1Cc1ccc(-c2ccccn2)cc1 (configuration not stated)
-1.7,i,-9,-3,-6.9,CCOC(=O)[C@]12CCC=C1N(Cc1ccccc1)C(=O)[C@H](CC(=O)N1CCN(C(=O)c3ccco3)CC1)C2
-1.7,i,16,28,1.8,O=C(C[n+]1cccc(C(=O)Nc2ccccc2)c1)c1ccccc1
-1.0,i,2,-1,2.6,O=C(N[C@H]1CC[C@@H](CCNS(=O)(=O)c2ccc(F)cc2)O[C@H]1CO)c1cccnc1
-1.6,i,1,0,0.3,C[C@H]1CN([C@@H](C)CO)C(=O)c2cccc(NC(=O)Nc3ccc(F)cc3)c2O[C@H]1CN(C)C
-10,i,3,3,0.3,C[C@H](CO)N1C[C@H](C)[C@H](CN(C)S(=O)(=O)c2cn(C)cn2)Oc2ccc(NC(=O)NC3CCCCC3)cc2CC1=O
-2.4,i,-4,-2,-1.1,CCCC(=O)N1CCC2(CC1)CN(C(=O)CC1CC1)[C@@H](CO)c1c2c2ccc(OC)cc2n1C
-6.1,i,-3,0,-0.3,C[C@H]1CCCCO[C@H](CN(C)C(=O)c2ccccc2)[C@@H](C)CN([C@@H](C)CO)C(=O)c2cc(NC(=O)Nc3ccccc3)ccc2O1
-3.4,i,0,2,-4.7,CC1(C(=O)NS(=O)(=O)c2ccc3c(c2)CCO3)CCN1C(=O)CCC1CCCC1 (configuration not stated)
-2.9,i,4,21,-0.9,C[C@H](CO)N1C[C@H](C)[C@@H](CN(C)C(=O)c2ccncc2)Oc2ncc(-c3ccncc3)cc2C1=O
-6.4,i,0,7,-0.6,Cc1ccc(S(=O)(=O)N(C)C[C@@H]2OCCCC[C@@H](C)Oc3ccc(NC(=O)NC4CCCCC4)cc3C(=O)N([C@@H](C)CO)C[C@H]2C)cc1
1.0,i,-5,-7,-3.0,Cc1noc(C)c1NC(=O)Nc1cccc2c1O[C@@H](CN(C)Cc1ccc(-c3ccccc3)cc1)[C@@H](C)CN([C@H](C)CO)C2=O
-3.3,i,5,10,0.2,Cc1ccccc1S(=O)(=O)NCC[C@H]1CC[C@H](NC(=O)C2CCC2)[C@@H](CO)O1
4.9,i,-4,5,3.4,O=C(COC(=O)c1ccc(F)cc1F)Nc1cc(S(=O)(=O)N2CCOCC2)ccc1Cl
-2.9,i,-3,-6,-2.6,C[C@H](CO)N1C[C@H](C)[C@@H](CN(C)C(=O)C2CCCCC2)OCCCC[C@H](C)Oc2ccc(NC(=O)CCC(F)(F)F)cc2C1=O
0.5,i,3,-1,0.2,O=C(NCC1CC1)[C@H]1[C@H](CO)[C@H]2Cn3c(ccc(C4=CCCC4)c3=O)[C@@H]1N2CCC(F)(F)F
-3.0,i,1,-8,0.7,C[C@@H]1CN([C@@H](C)CO)S(=O)(=O)c2ccc(C3=CCCC3)cc2O[C@H]1CN(C)C(=O)c1cccnc1
2.0,i,-1,-8,0.8,COc1ccc(S(=O)(=O)Nc2ccc3c(c2)C(=O)N([C@H](C)CO)C[C@@H](C)[C@@H](CN(C)S(=O)(=O)c2ccccc2)O3)cc1
0.6,i,1,-3,-2.0,Cc1ccc(S(=O)(=O)N[C@@H]2CC[C@H](CC(=O)NCc3ccccc3F)O[C@H]2CO)cc1
-1.7,i,-2,-2,3.0,C[C@@H]1CN([C@@H](C)CO)C(=O)c2cc(NC(=O)NC3CCCCC3)ccc2O[C@@H](C)CCCCO[C@H]1CN(C)Cc1ccc(C(F)(F)F)cc1
-0.2,i,1,5,-0.9,O=C(C[C@H]1CC[C@H](NC(=O)C2CC2)[C@@H](CO)O1)Nc1nccs1
-3.9,i,4,12,-2.7,COc1ccc(NC(=O)Nc2ccc3c(c2)C(=O)N([C@H](C)CO)C[C@H](C)[C@H](CN(C)C(=O)CCCN(C)C)OCCCC[C@@H](C)O3)cc1
4.8,i,0,2,-1.7,C[C@@H]1CCCCO[C@@H](CN(C)Cc2ccc3c(c2)OCO3)[C@H](C)CN([C@H](C)CO)C(=O)c2cc(N(C)C)ccc2O1
2.2,i,-1,-3,0.6,COc1cccc(NC(=O)N(C)C[C@@H]2OCc3ccccc3-c3c(n(C)c4ccccc34)C(=O)N([C@H](C)CO)C[C@@H]2C)c1
3.2,i,-8,-7,1.5,C[C@H](CO)N1C[C@H](C)[C@@H](CN(C)CC2CC2)Oc2c(NC(=O)c3ccc(-c4nccs4)cc3)cccc2C1=O
4.6,i,-49,-80,-15,O=C(C[C@H]1C(=O)N(Cc2cccnc2)C[C@@H]1Cc1ccccc1)Nc1ccc(Br)cc1
-8.5,i,1,7,-1.5,S=C1NCc2cncnc2N1
-2.7,i,0,7,-2.7,COCCN(C[C@@H]1[C@H](c2ccccc2)[C@@H](CO)N1C(=O)C1CCC1)C(C)=O
-0.4,i,0,-12,3.1,COc1ccc(-c2cnc3c(c2)C(=O)N([C@H](C)CO)C[C@H](C)[C@@H](CN(C)C(=O)C2CCCCC2)O3)cc1
0.4,i,0,6,-2.8,Cc1noc(C)c1NC(=O)Nc1cccc2c1O[C@H](CN(C)C(=O)Nc1c(C)noc1C)[C@@H](C)CN([C@@H](C)CO)C2=O
-0.4,+,1,-2,-3.5,COc1ccc(C(=O)N2C[C@H]3[C@@H](c4ccccc42)[C@@H](CO)N3C(=O)c2ccc(F)cc2)cc1
-0.4,i,-7,-10,1.1,Cc1ccc(S(=O)(=O)N[C@H]2CC[C@@H](CC(=O)N3CCN(c4ccccc4)CC3)O[C@H]2CO)cc1
-1.2,i,-3,1,-1.3,COc1ccccc1NC(=O)N[C@@H]1CC[C@H](CC(=O)N[C@@H](C)c2ccccc2)O[C@@H]1CO
0.2,i,0,-2,0.4,O=C(C[C@H]1C[C@H]2c3cc(NC(=O)C4CCC4)ccc3O[C@H]2[C@@H](CO)O1)NCc1cc(F)ccc1F
-1.8,i,0,-4,-6.9,COc1ccc2c3c(n(C)c2c1)[C@H](CO)N(CC1CC1)CC31CCN(C(=O)Nc2ccc(F)cc2F)CC1
-1.2,i,-26*,-19*,0.8*,CCCCCCNC(=O)O[C@H]1Cn2c(=O)ccc(=O)n2[C@@H]2CN(S(=O)(=O)c3ccc(C)cc3)C[C@]12O

Grouped by structure, those above containing a CF3 group
MLL AF4-AF9 inh,FGF22 binding,Ecoli rRNA inh,Ecoli rRNA inh OD600,Ecoli rRNA inh RFP,SMILES
-2.9,i,-3,-6,-2.6,C[C@H](CO)N1C[C@H](C)[C@@H](CN(C)C(=O)C2CCCCC2)OCCCC[C@H](C)Oc2ccc(NC(=O)CCC(F)(F)F)cc2C1=O
0.5,i,3,-1,0.2,O=C(NCC1CC1)[C@H]1[C@H](CO)[C@H]2Cn3c(ccc(C4=CCCC4)c3=O)[C@@H]1N2CCC(F)(F)F
-1.7,i,-2,-2,3.0,C[C@@H]1CN([C@@H](C)CO)C(=O)c2cc(NC(=O)NC3CCCCC3)ccc2O[C@@H](C)CCCCO[C@H]1CN(C)Cc1ccc(C(F)(F)F)cc1

(cont.)
MLL AF4-AF9 inh,FGF22 binding,Ecoli rRNA inh,Ecoli rRNA inh OD600,Ecoli rRNA inh RFP,SMILES
0.3,i,-22,-23,0.1,COc1ccccc1-c1ccc2c(c1)O[C@@H](CN(C)CC1CCOCC1)[C@H](C)CN([C@@H](C)CO)S2(=O)=O
1.3,i,3,9,-4.8,CO[C@@H]1CC[C@@H]2CCN(C)C(=O)C[C@H](c3ccccc3)CN(C)C(=O)c3cc(C#N)ccc3OC[C@H]1O2
0.1,i,-3,1,0.5,Cc1noc(C)c1S(=O)(=O)Nc1ccc2c(c1)CC(=O)N([C@@H](C)CO)C[C@@H](C)[C@@H](CN(C)S(=O)(=O)c1ccccc1)O2
4.2,i,0,3,-0.6,CC(C)CC#Cc1ccc2c(c1)O[C@@H](CN(C)CC1CCOCC1)[C@@H](C)CN([C@@H](C)CO)S2(=O)=O
-3.8,i,2,10,-2.0,C[C@@H]1CN([C@@H](C)CO)C(=O)c2cc(C#C[C@@H](C)O)cnc2O[C@H]1CN(C)C(=O)c1ccccc1
-48,i,12,11,0.5,COC1C(CO)OC(n2cnc3c(=S)nc(N)[nH]c32)C1O (configuration not stated)
-5.2,i,14,11,5.3,CC(C)C[C@@H](CNCC(=O)[C@H](CC(=O)O)NC(=O)c1[nH]cnc1C(=O)N[C@H](CN)CC(C)C)NC(=O)c1nc[nH]c1C(=O)N[C@@H](Cc1ccccc1)C(=O)O
-4.0,i,1,1,-0.2,CC(C)NC(=O)N(C)C[C@H]1OCc2ccccc2-c2c(n(C)c3ccccc23)C(=O)N([C@@H](C)CO)C[C@H]1C
-3.9,i,-46,-58,18,N#Cc1ccc(-c2ccc3c(c2)[C@@H]2[C@@H](CCN2C(=O)Cc2ccccc2)[C@H](CO)N3)cc1
1.2,i,-3,-1,-2.1,Cc1cccc(-c2ccc([C@@H]3[C@@H](CO)N4CCCCN(Cc5ccncc5)C[C@H]34)cc2)c1
-0.6,i,-4,-3,-1.0,C[C@H](CO)N1C[C@H](C)[C@@H](CN(C)S(C)(=O)=O)OCCCC[C@H](C)Oc2ccc(NC(=O)Nc3cccc4ccccc34)cc2C1=O
-3.5,i,-1,-3,-3.3,C[C@H](CO)N1C[C@H](C)[C@@H](CN(C)C(=O)Nc2ccccc2)OCCCC[C@H](C)Oc2ccc(NS(C)(=O)=O)cc2C1=O
1.1,i,4,12,1.0,C[C@H](CO)N1C[C@H](C)[C@H](CN(C)Cc2ccc(C(=O)O)cc2)Oc2ccc(NC(=O)C3CC3)cc2C1=O
6.2,i,-5,-15,-0.2,CC(C)NC(=O)NCC[C@H]1CC[C@@H](NS(=O)(=O)c2ccc(Oc3ccccc3)cc2)[C@H](CO)O1
-4.2,i,5,9,0.6,O=C(O)C1CCCCN1c1ccccc1[N+](=O)[O-] (configuration not stated)
-0.8,i,-2,-1,-2.5,CCCC(=O)N1C[C@@H]2[C@H](c3ccccc31)[C@H](CO)N2C(=O)Nc1ccc(F)cc1
4.3,i,3,1,1.8,CC(C)NC(=O)N1CCCCN2[C@H](CO)[C@@H](c3ccc(C#CC4CC4)cc3)[C@H]2C1
-14,i,4,12,-2.8,COCC(=O)Nc1ccc2c(c1)C(=O)N(C)[C@@H]1CC[C@@H](CC(=O)NCCCN(C)C)O[C@@H]1CO2
15,i,0,3,-1.6,C[C@@H]1CN([C@@H](C)CO)C(=O)c2c(c3ccccc3n2C)-c2ccccc2CO[C@H]1CN(C)S(=O)(=O)c1ccc([N+](=O)[O-])cc1
0.7,i,-3,-7,4.5,COc1ccc(S(=O)(=O)N(C)C[C@H]2Oc3ccc(NC(=O)NC4CCCCC4)cc3CC(=O)N([C@H](C)CO)C[C@@H]2C)cc1
-2.6,i,4,-6,-3.7,O=C1NC(=O)C2(C=C(c3ccccc3)C(O)(c3ccccc3)C2)N1 (configuration not stated)
9.4,i,0,1,2.2,C[C@H](CO)N1C[C@H](C)[C@H](CN(C)S(=O)(=O)c2ccc(Cl)cc2)Oc2ccc(NC(=O)Nc3cccc4ccccc34)cc2CC1=O
0.9,i,3,0,-0.7,CO[C@H]1CN(C)C(=O)c2cc(NC(=O)C3CCCC3)ccc2OC[C@@H](C)N(CC2CC2)C[C@H]1C
-1.8,+,-3,-10,-1.5,O=C(N[C@H]1CC[C@@H](CCNS(=O)(=O)c2ccc(F)cc2)O[C@H]1CO)C1CCCC1

The list goes on, overlapping the part above by 2 compounds.
MLL AF4-AF9 inh,FGF22 binding,Ecoli rRNA inh,Ecoli rRNA inh OD600,Ecoli rRNA inh RFP,SMILES
0.9,i,3,0,-0.7,CO[C@H]1CN(C)C(=O)c2cc(NC(=O)C3CCCC3)ccc2OC[C@@H](C)N(CC2CC2)C[C@H]1C
-1.8,+,-3,-10,-1.5,O=C(N[C@H]1CC[C@@H](CCNS(=O)(=O)c2ccc(F)cc2)O[C@H]1CO)C1CCCC1
-4.5,i,-1,-2,-3.9,C[C@H]1CN([C@@H](C)CO)C(=O)Cc2cc(NS(=O)(=O)c3cn(C)cn3)ccc2O[C@@H]1CN(C)Cc1ccc(C(=O)O)cc1
-8.0,i,-1,5,1.6,Cc1ccn2c(-c3csc(Nc4ccc(C(=O)O)cc4)n3)c(C)nc2c1
0.5,i,-3,2,-0.6,COc1ccc(C(=O)N2CCc3ccccc3C2)cc1S(=O)(=O)N1CCCC1
-1.2,i,1,6,-2.0,CCCNC(=O)C[C@@H]1CC[C@H]2[C@@H](COC[C@@H](O)CN2C(=O)c2ccccn2)O1
-5.8,i,3,3,-0.2,C[C@H]1CN([C@@H](C)CO)C(=O)c2cccc(NC(=O)C3CC3)c2O[C@@H]1CN(C)C(=O)Nc1ccccc1
3.8,i,-4,-4,-1.7,Cc1noc(C)c1S(=O)(=O)Nc1ccc2c(c1)C(=O)N([C@H](C)CO)C[C@H](C)[C@@H](CN(C)C(=O)CCC(F)(F)F)OCCCC[C@@H](C)O2
2.8,i,4,3,-1.5,CSCCC(NC(=O)c1ccc(Cl)cc1Cl)C(=O)NCC(c1cccs1)N(C)C (configuration not stated)
